Source: PubChem BioAssay
PrP UTR inh: inhibition of PrP 5' UTR reporter expression; cell-based PrP 5' UTR mRNA reporter, plate reader; inhibition, % (test concentration not listed); actives 0.35% (n = 340,000);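 active = every replicate at 50% or more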;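 also: 0 = median of the neutral control wells; tested in H4 reporter cells; numbers are from one replicate; inactives centre near -14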
Sa ugtP lethal: growth inhibition of ugtP-null S. aureus, primary screen, RN4220 ugtP deletion, OD600. 16 h; some inactives read as strong as hits. actives 0.54% (n = 330,000). growth inhibition, % (concentration not given with the values);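 active = z-score under -3 and OD600 up to 0.15 on both plates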;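 also: plate controls were untreated wells for no effect and antibiotic for full effect; wells of about 80 µL received 100 nL stock; the first replicate is given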
Mtb hypoxia inh: PubChem AID 1159583; actives 0.1% (n = 300,000); M. tuberculosis hypoxia-regulated fluorescent reporter, fluorescence; fluorescence inhibition, % (test concentration not listed);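 active = 35 to 45% if threefold the growth effect, above 45% if 1.5-fold the growth effect; inactive = the rest, general growth blockers included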;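 also: wells of about 50 µL received 100 nL stock; 0% = vehicle wells and 100% = reference inhibitor wells; whole bacteria with a GFP reporter of the hypoxia response; strong numbers were not always called active; many hits fall short of the cut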
Sa RN4220 lethal: growth inhibition of S. aureus RN4220, primary screen, OD600; 16 h; inhibition, % (no concentration beside the values); actives 0.33% (n = 330,000); AID 1259311, 2017;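 active = z-score of -3 or lower and OD600 up to 0.18 on both plates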;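 also: plate controls were untreated cells for no effect and reference antibiotic for full effect; stock transfer was 100 nL into about 80 µL; one replicate is shown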
BJeLR viability: MLPCN primary cell-based screen for lethality selective to Ras in HRASV12 cells. BJeLR (HRASV12) viability, CellTiter-Glo ATP luminescence, 48 h; reference of the scale not given here. actives 0.17% (n = 300,000). AID 1554, 2009. inhibition, % (concentration not given with the values);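 active = replicate mean above 50%; inconclusive = above 50% but judged a plate artefact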;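 also: 50 nL library stock added to about 25 µL; numbers are from one replicate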
Autofluor counter: compound fluorescence in toxin protease inhibitor counterscreen; compound autofluorescence counterscreen, microsphere flow cytometry; hits give high values; fluorescence intensity (test concentration not listed); actives 3.1% (n = 360,000); AID 624483;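 active = at least 3 SD above the mean of all compounds, about 16000 in these data; inconclusive = too few beads counted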;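 also: 100 nL of 1 mM stock went into each well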
Mtb hypoxia inh growth: further read-out of Mtb hypoxia inh, marked with its call; growth inhibition, %; measured here: M. tuberculosis growth (absorbance);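 0% = vehicle and 100% = reference antibiotic; read after six days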
Active calls of the source: *; ? = inconclusive; · = no result given. Rows were taken by chance (roughly 4.1% active in at least one column).

compound	PrP UTR inh	Sa ugtP lethal	Mtb hypoxia inh	Mtb hypoxia inh growth	Sa RN4220 lethal	BJeLR viability	Autofluor counter
O=C(NCc1cccs1)C1CCN(S(=O)(=O)c2cccc3cccnc23)CC1	13	8	·	·	-5.1	-4	4044
COCCCNC(=O)CSc1nc2cc(C(=O)NCCOC)ccc2c(=O)n1Cc1ccc2c(c1)OCO2	4	-4	8	9	3.2	-5	3416
Cc1ccc(NS(=O)(=O)c2ccc(OCC(N)=O)cc2)cc1	3	12	7	-4	5.6	-4	4721
O=C(Cn1cnc2c(nnn2Cc2ccc(Cl)cc2)c1=O)NC1CCCC1	-12	2	0	-4	2.0	0	11745
O=C(CCN1CCOCC1)NC12CC3CC(CC(C3)C1)C2	-13	1	11	1	1.3	-1	3688
CCOC(=O)c1[nH]c(C)c(C(=O)NCc2ccco2)c1C	-32	13	·	·	0.5	-14	5588
CCOC(=O)C1=C(C)N(CCCCCC(=O)O)C(=O)NC1c1ccccc1OC(=O)c1cccs1 (stereo unspecified)	·	6	4	10	6.6	·	·
O=C1C2CCCN2C(=S)N1c1ccccc1 (stereo unspecified)	-21	-4	14	6	-3.1	0	4000
CCCC(=O)Nc1ccc2c(c1)c1ccccc1n2CC	-11	-9	13	6	0.2	2	1957
Cn1c(-c2ccc(Br)o2)nc2ccccc21	-122	18	·	·	2.2	21	4809
COc1ccccc1C(=O)CN1C(=O)NC2(CCCc3ccccc32)C1=O (stereo unspecified)	-10	8	1	6	1.9	·	2982
O=C(NC(=S)Nc1ccccc1)C1CCCCC1	-19	45	16	20	2.2	3	5009
O=C(Nc1ccnn1C1CCN(Cc2ccc(O)c(Cl)c2)CC1)C1CCCC1	-8	3	1	0	0.4	-1	5533
CC(C)(C)C(=O)/C(=C/c1ccc(Cl)cc1)n1cncn1	-2	8	23	8	4.8	15	3785
CC1CCN(S(=O)(=O)c2ccc3c(c2)CC(C)N3C(=O)C2CCC2)CC1 (stereo unspecified)	-15	4	1	4	2.0	-4	·
CCSc1cc(N2CCCC2)nc(-c2ccccc2)n1	-21	9	-12	-1	17	1	3391

Complete entries from above. Values in the order: PrP UTR inh | Sa ugtP lethal | Mtb hypoxia inh | Mtb hypoxia inh growth | Sa RN4220 lethal | BJeLR viability | Autofluor counter
CCSc1cc(N2CCCC2)nc(-c2ccccc2)n1 in the list: -21 | 9 | -12 | -1 | 17 | 1 | 3391
CC1CCN(S(=O)(=O)c2ccc3c(c2)CC(C)N3C(=O)C2CCC2)CC1 (stereo unspecified) in the list: -15 | 4 | 1 | 4 | 2.0 | -4 | ·
COc1ccccc1C(=O)CN1C(=O)NC2(CCCc3ccccc32)C1=O (stereo unspecified) in the list: -10 | 8 | 1 | 6 | 1.9 | · | 2982
O=C(NC(=S)Nc1ccccc1)C1CCCCC1 in the list: -19 | 45 | 16 | 20 | 2.2 | 3 | 5009

Next structures follow:
compound	PrP UTR inh	Sa ugtP lethal	Mtb hypoxia inh	Mtb hypoxia inh growth	Sa RN4220 lethal	BJeLR viability	Autofluor counter
CC(c1ccco1)N(C(=O)c1ccc(C(F)(F)F)cc1)c1ccccn1 (stereo unspecified)	-27	1	13	10	7.4	-33	4270
O=C(Nc1sc2c(c1C(=O)O)CCCCC2)c1ccccc1	-72	26	-5	-5	30	7	4582
Cc1ccc(C(c2ccc(C)o2)c2cccc([N+](=O)[O-])c2O)o1	-21	52	19	2	-5.0	-2	9757
O=C(Nc1ccc(Oc2cccnc2)cc1)C1CCN(Cc2cc(Cl)ccc2O)CC1	-5	-11	6	0	-6.3	12	4731
O=C(Nc1ccc2c(c1)S(=O)(=O)N=C1CCCCCN12)c1ccccc1Cl	-30	7	10	0	6.7	2	4524
O=C(NCc1cccs1)c1ccccc1C(=O)NCc1cccs1	3	1	-3	6	2.4	0	23472*
O=C(COC(=O)c1cc[n+]([O-])cc1)Nc1cccc(Br)c1	-23	5	5	3	4.3	·	?
O=C(Nc1cccc(S(=O)(=O)N2CCOCC2)c1)C1=NN(c2ccccc2)C(=O)CC1	-7	-1	14	6	4.1	7	5827
COc1ccccc1-c1nnc(Nc2nc3c(OC)cccc3s2)o1	37	-6	-26	-10	-1.6	36	4052
O=C(Cn1cc(C(F)(F)F)cc(Cl)c1=O)Nc1cc(S(=O)(=O)N2CCOCC2)ccc1Cl	-9	1	·	·	5.3	-13	2629
CC(CCCN(C)C)C(Cc1ccccc1)c1ccccc1 (stereo unspecified)	·	9	13	9	-1.8	-3	6308
CN(C)C1N(C(=O)c2ccccc2)N=C2c3ccccc3S(=O)(=O)N21 (stereo unspecified)	-9	11	12	-1	4.0	-2	2701
Cc1cccc(N2CCN(CC(O)COc3ccccc3)CC2)c1 (stereo unspecified)	-19	-2	1	0	2.0	·	3955
CCOc1cc(C(=O)N2CCC3(CC2)NCCc2[nH]cnc23)cc(OCC)c1OCC	3	6	5	-3	2.3	1	4420
CC(O)CNc1ccc(-c2nn(C)c(=O)c3ccccc23)cc1[N+](=O)[O-] (stereo unspecified)	-5	12	16	8	7.4	3	2158
Cc1ccc(S(=O)(=O)Oc2ccccc2/C=C2\SC(=O)NC2=O)cc1	-2	43	-11	1	53	4	2089
CC(=O)NCc1ccc2[nH]c(C)cc2c1	12	1	0	5	5.0	4	5001
CC(=O)Nc1ccc(S(=O)(=O)NC(CC(=O)N2CCC3(CC2)OCCO3)C(C)C)cc1 (stereo unspecified)	-21	12	·	·	0.0	-1	2733
COCCN(C(=O)c1csnn1)C(C(=O)NC1CCCC1)c1ccc(C)cc1 (stereo unspecified)	-18	0	2	-3	1.1	1	3928
CC(=NNC(=O)c1cc(C)[nH]n1)C(C)(C)C	·	2	-6	2	-1.7	·	·
CCOC(=O)c1c2ccccc2[n+]([O-])n1[C@@H](C)C(N)=O	-21	·	·	·	·	2	4231
O=S(=O)(c1cccc2nsnc12)N1CCCCC1	-8	6	15	-2	3.0	9	4290
CCN(CC)S(=O)(=O)c1cc(Br)c(C)cc1OC	-19	3	·	·	0.9	-2	2502
Fc1cnc(N2CCOCC2)nc1NCc1ccccc1	-38	4	15	10	2.9	4	19171*
CCOc1ccc2nc(SCc3ccc(C(=O)OC)o3)[nH]c2c1	-12	20	9	9	-1.7	1	3816
COc1ccc(C(=O)NNC(=O)C(NC(=O)c2cc(OC)cc(OC)c2)C(C)C)cc1 (stereo unspecified)	-17	1	21	10	0.7	·	3554
CCn1c(SCC(=O)Nc2cc(C)ccc2C)nnc1-c1cnccn1	-6	8	8	2	3.3	2	4575
O=C(NCc1cccc(Cl)c1)c1cc(=O)[nH]c2ccccc12	2	-2	0	1	0.5	-15	6256
Cc1ccc(S(=O)(=O)NCCC(=O)NCC(c2ccc(F)cc2)N2CCOCC2)cc1 (stereo unspecified)	-6	-6	-11	4	0.3	·	3538
CC(C)C1Nc2ccc(C(=O)NC3CCCCC3)cc2NC1=O (stereo unspecified)	-17	4	-1	9	0.5	-7	3634
O=C(Cn1nnc(-c2ccc(Cl)cc2)n1)N1CCN(C(=O)c2ccco2)CC1	-5	3	5	10	1.8	·	7854
CSc1nc(-c2ccco2)nn1C(=O)c1ccccc1	1	-5	-2	4	-15	7	2931
Cc1cc(C)cc(-n2cnc3cc(C(=O)O)ccc32)c1	-14	1	7	0	2.0	5	6947
Cc1cccc(-n2c(SCC(=O)c3c(N)n(C4CC4)c(=O)[nH]c3=O)nnc2N2CCOCC2)c1	-21	4	3	6	1.0	·	4932
CCN(CC)c1ccc(/C=N/NC(=S)NCc2ccc(OC)cc2)cc1	-12	·	·	·	·	-5	2459
Cc1ccc(S(=O)(=O)N2CCOCC2)cc1C(=O)Nc1nc2ccccc2[nH]1	-34	-7	-4	10	3.7	1	2992
CC1(C)Cc2cccc(OCC(=O)OCC(=O)Nc3cccc(S(N)(=O)=O)c3)c2O1	-26	1	1	6	0.9	10	4732
O=C(NCCCN1CCCC1)[C@H](CSCc1ccccc1)N1Cc2ccccc2C1=O	-2	1	-4	2	2.1	-9	6322
COc1ccc(NC(=O)c2cc([N+](=O)[O-])ccc2O)cc1	87*	79	24	19	78	50	3429
COc1cc(C=O)ccc1OC(=O)N1CCOCC1	-4	-1	-4	-2	2.2	3	3798
O=C(Nc1ccc2ccccc2c1)c1cn(-c2ccccc2)nc1-c1cccs1	-20	-16	-2	-3	-9.3	0	16591*
Cc1[nH]c2ccccc2c1C(=O)CSc1nc2cc(S(=O)(=O)N3CCCCC3)ccc2o1	-2	-23	-6	-5	-5.0	-4	3282
O=c1c2cc(-c3ccccc3)sc2ncn1/N=C/c1ccco1	-74	·	·	·	·	-4	3186
CCOc1ccc(N(CC(=O)NC2CCCCC2C)S(=O)(=O)c2c(C)noc2C)cc1 (stereo unspecified)	-13	3	1	1	2.8	-11	5343
COc1ccc(C(C(=O)NCC2CCCO2)N(Cc2cccs2)C(=O)c2snc(C(N)=O)c2N)cc1 (stereo unspecified)	-6	-2	6	7	-0.2	6	6000
COc1cc(OC)cc(-c2c(-c3cccs3)c3cc(-c4cnc(N)nc4)ccc3n2C)c1	8	2	-9	9	-0.5	·	3730
C=CC(COCc1ccccc1)N(CC(=O)OC)S(=O)(=O)c1cc(Br)ccc1OC (stereo unspecified)	-6	8	1	1	-2.1	·	3140
O=C(Nc1ccc2nn(-c3ccc(F)cc3)nc2c1)c1cccnc1	-29	24	4	2	-3.9	4	4098
O=C(CCN1C(=O)C2C3CCC(C3)C2C1=O)Nc1ccccc1Cl (stereo unspecified)	-7	-2	6	11	-3.3	-1	6379
COc1ccc2cc(/C=C/C(=O)N3CCN(CC(=O)N4CCCCCC4)CC3)ccc2c1	-47	-3	8	13	-3.6	4	5951
O=C(Nc1ccccc1F)Nc1ccccc1N1CCCCC1	-35	-6	-5	-8	3.9	-1	5826
Cc1cc(C)cc(N(C(=O)c2sc(C)nc2C)C(C(=O)NC(C)(C)C)c2ccncc2)c1 (stereo unspecified)	-35	-2	2	7	1.3	3	4094
O=C(O)CN(Cc1ccco1)S(=O)(=O)c1ccccc1	-20	-2	15	2	-6.1	-1	3012
CC(=NNC(=O)CNC(=O)c1cccnc1)c1ccccc1	·	1	0	-1	-1.6	·	·
CCOc1ccc(N(CC(=O)NCC2CCCO2)C(=O)CCC(=O)Nc2nccs2)cc1 (stereo unspecified)	-15	-1	-3	-12	-1.3	5	2451
O=c1cnnc(SCCc2ccccc2)[nH]1	-16	-1	11	10	8.3	0	23384*
O=C(O)c1cccc(NCc2ccncc2)c1	·	4	12	2	4.7	0	·
Cc1nn(-c2ccccc2)c(C)c1NC(=O)COc1ccc2ccccc2c1	14	12	6	1	0.1	-12	16117
